# Screening data: PubChem BioAssay, ICCB-Longwood Screening Facility, Harvard Medical School
# HCMV NEC inh – disrupts HCMV UL50-UL53 complex binding | HTRF UL50-UL53 interaction, normalized percent inhibition | inhibition, % (no concentration beside the values) | 0.15% of 190,000 active | AID 1918969;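 active = both replicates at 50% or more, plus weaker picks with an unusually low signal ratio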;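 also: stock transfer was 100 nL into about 20 µL; 0% = negative control wells and 100% = wells with untagged competitor protein; inactives centre near -12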
# GIV-Gai inh – blocks GIV peptide binding to rat Galpha-i3. AID 1224905. P08753. percent of control (FP), % (concentration not given with the values). 0.42% of 210,000 active. Galpha-i3/FITC-GIV peptide fluorescence polarization, 90 min; hits give low values; scaled: aluminum fluoride 0%, vehicle 100%;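 active = replicate mean at 85% of control or lower, very high polarization wells dropped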;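 also: wells of about 15 µL received 100 nL stock; the first replicate is given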
# Target sequence (P08753 whole entry, looked up): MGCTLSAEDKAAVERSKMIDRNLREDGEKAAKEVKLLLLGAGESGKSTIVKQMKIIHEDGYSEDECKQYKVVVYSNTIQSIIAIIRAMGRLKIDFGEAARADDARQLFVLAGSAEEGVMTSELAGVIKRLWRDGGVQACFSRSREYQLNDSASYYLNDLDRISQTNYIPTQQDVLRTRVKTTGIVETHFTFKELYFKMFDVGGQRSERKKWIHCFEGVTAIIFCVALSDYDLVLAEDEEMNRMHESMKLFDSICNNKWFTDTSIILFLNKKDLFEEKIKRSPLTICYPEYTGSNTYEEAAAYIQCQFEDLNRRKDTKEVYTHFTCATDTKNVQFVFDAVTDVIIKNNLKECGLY
# Sa growth inh – inhibitors of Staphylococcus aureus growth at 42 °C; S. aureus RN4220 growth, OD600, 20 h; hits give low values; relative growth, % (no concentration beside the values); 0.53% of 170,000 active; AID 720641;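 active = growth at 42 °C up to 50% and 20 or more points under that at 30 °C, or under 10% at both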;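 also: 300 nL library stock went into each well; scaled to the means of positive and negative controls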
# Sa growth inh second temp – recorded beside Sa growth inh, whose call it bears; relative growth, %; measured here: growth at 30 °C;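 optical density after 20 h as mean of two plates; 100% = untreated growth and lower means inhibition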
# Starred values were filed as active, the others as inactive; / = not tested or not shown.
SMILES,HCMV NEC inh,GIV-Gai inh,Sa growth inh,Sa growth inh second temp
COc1cc(CN(C)C(=O)C2CCN(C(C)=O)CC2)ccc1OCc1ccccc1,-8,/,84,94
Cc1nn(CC(=O)NCc2ccco2)c(=O)c2nn(-c3ccccc3)c(C)c12,/,110,77,88
O=C(Cc1ccccc1)Nc1ccc(N2C(=O)C3C4C=CC(C4)C3C2=O)cc1Cl (stereo not given),-12,110,/,/
COc1ccc(CNC(=O)COC(=O)C2CC3C=CC2C3)cc1 (stereo not given),-12,/,96,87
CN1C(=O)c2cc(C(=O)NC3CCCC3)nn2CC1(C)C(=O)NC1CCCCC1 (stereo not given),-7,101,/,/
CC(NCc1ccc2c(c1)OCO2)C(=O)Nc1cc(Cl)cc(Cl)c1 (stereo not given),5,/,149,65
Cc1ccc(SCC(=O)N(c2ccccc2)C(C)C)cc1,-8,/,95,111
COc1ccc(Cl)c(N=C2NC(=O)/C(=C\c3cccnc3)S2)c1,/,99,120,66
Cc1onc(-c2ccccc2Cl)c1C(=O)N1CCCCC1C (stereo not given),-5,/,103,87
Cc1ccc(N2CC(O)=C(c3nc4ccccc4s3)C2=N)c(C)c1,-14,110,114,93
CC(=O)N1CC(c2cnc(-c3ccccc3)c(C)c2)C=C(C)C1c1ccccc1 (stereo not given),-10,/,133,86
O=C(O)c1ccccc1-n1cnnn1,-23,99,89,84
Cc1oc(C)c2c(=O)cc(-c3ccc4c(c3)OCO4)cc(OC(=O)c3cccc(Cl)c3)c12,19,106,85,96
CN(C)CCNC(=O)CC1CCN(S(=O)(=O)c2ccc(Cl)cc2)CC1,-32,98,/,/
CCOC(=O)c1c(-c2cccs2)csc1NC(=O)CN1CCC(C)CC1,2,96,104,93
Cc1ccc2cc3c(nc2c1)N(S(=O)(=O)c1ccc2c(c1)OCO2)CC3,-6,98,/,/
CCc1ccc(-n2c(=O)c3ccccc3n(CC(=O)NCCc3ccc(OC)c(OC)c3)c2=O)cc1,-1,99,101,90
Cc1ncc(CSc2ccccn2)c(CO)c1O,-39,94,103,82
O=C(NCCSc1nc2ccccc2o1)c1ccccc1,5,/,104,90
COC(=O)c1ccsc1NC(=O)c1cccs1,-20,102,92,83
CCOC(=O)Cc1cc(C(=O)c2ccc(OC)cc2)sc1-c1ccc(OC)cc1,/,97,91,93
Cc1cccc(Cn2c(SCc3ccc(C(=O)NCc4ccccc4)cc3)nc3cccnc32)c1,/,105,153,112
CCOC(=O)NC(=S)c1cccn1C,-66,98,100,79
CCCN1Cc2cccc(-c3nc(C)c(C(=O)OCC)o3)c2C1=O,-4,91,96,87
COc1ccc(OCC(=O)Nc2ncccc2C)cc1,-7,103,114,109

# Results in HCMV NEC inh and GIV-Gai inh, for 5 of the compounds above:
canonical_smiles | HCMV NEC inh | GIV-Gai inh
CN1C(=O)c2cc(C(=O)NC3CCCC3)nn2CC1(C)C(=O)NC1CCCCC1 (stereo not given) | -7 | 101
CC(NCc1ccc2c(c1)OCO2)C(=O)Nc1cc(Cl)cc(Cl)c1 (stereo not given) | 5 | /
Cc1ccc(SCC(=O)N(c2ccccc2)C(C)C)cc1 | -8 | /
COc1ccc(Cl)c(N=C2NC(=O)/C(=C\c3cccnc3)S2)c1 | / | 99
Cc1onc(-c2ccccc2Cl)c1C(=O)N1CCCCC1C (stereo not given) | -5 | /

# More records:
SMILES,HCMV NEC inh,GIV-Gai inh,Sa growth inh,Sa growth inh second temp
O=C(O)CCCC(=O)N1CC(=O)Nc2ccccc21,-14,106,99,95
CC(Oc1ccc2c(c1)OCO2)C(=O)c1ccc(OC(F)F)cc1 (stereo not given),-17,/,83,93
COc1ccc(/C=C2\SC(=O)N(CCC(=O)N3CCOCC3)C2=O)cc1OC,-46,100,/,/
COc1ccc(-c2noc(=O)n2Cc2ccccc2)cc1,0,103,97,57
O=C(CN1CCSc2ccccc21)N1CCN(C2CCCCC2)CC1,-16,104,/,/
CCOC(=O)c1ccc(N2C(=O)C(Oc3ccccc3)C2c2ccc(C(=O)OC)cc2)cc1 (stereo not given),-3,92,/,/
Cc1nc2ccccc2c(=O)n1Cc1noc(Cc2ccccc2Br)n1,-33,104,/,/
COCCN=Cc1c(CSc2ccc(Cl)cc2)[nH]n(-c2nc3ccccc3s2)c1=O,-1,111,/,/
O=C(Cn1ncc2c3ccccc3n(Cc3cccc(Cl)c3)c2c1=O)Nc1ccc(F)cc1F,-18,156,103,79
Cc1ccc(Cn2c(=O)n3nc(-c4ccccc4)nc3c3ccccc32)cc1,-2,99,/,/
CCCCn1c(=O)c2oc3ccccc3c2n(CC(=O)Nc2cccc(Cl)c2C)c1=O,/,97,83,84
Cc1cc(C)cc(C(=O)NCCc2csc3nc(-c4ccccc4C)nn23)c1,-22,101,/,/
Cc1cc2nnnn2c(N(C)S(=O)(=O)c2ccccc2)n1,-18,102,91,84
Cc1csc(SCC(=O)c2ccc(O)cc2O)n1,9,/,104,81
CC(C)CCn1c(Br)nc2c1c(=O)n(Cc1ccccc1)c(=O)n2C,-5,105,122,85
COc1cccc(C2C3=C(CC(C)(C)CC3=O)Nc3ccccc3N2C(=O)Cc2ccccc2)c1 (stereo not given),6,111,/,/
CN(C(=O)COC(=O)c1cccs1)c1ccccc1,-21,/,90,86
COc1cccc(NC(=O)c2cnc(SCC(=O)N3CCCc4ccccc43)n(C)c2=O)c1,/,96,100,95
C=CCNC(=S)NNc1nccc(-c2cccnc2)n1,-28,105,89,89
CCOc1ccc(N2CC(c3nc(-c4cc(OC)c(OC)c(OC)c4)no3)CC2=O)cc1 (stereo not given),/,98,81,91
O=C(Cn1c2ncccc2c(=O)n1-c1ccccc1)Nc1ccc(Cl)cc1C(F)(F)F,/,102,96,89
CCN(C(=O)CCS(=O)(=O)c1cc2[nH]c(=O)c(=O)[nH]c2cc1C)c1ccccc1,/,98,93,88
NC(N)=N/N=C/C=C/c1ccccc1,-96,110,67,35
CCN(CC)c1nc(N2CCN(C)CC2)nc2ccccc12,-18,104,93,91
Cc1cc(C)cc(NC(=O)C2CC(=O)Nc3nc(C)nn32)c1 (stereo not given),-26,99,/,/
SMILES,HCMV NEC inh,GIV-Gai inh,Sa growth inh,Sa growth inh second temp
O=C(COc1ccc(Br)cc1)OCC(=O)N1CCCCC1,-18,/,106,89
CCCCc1ccc(NC(=O)COC(=O)c2ccc(Cl)nc2)cc1,17,/,100,98
Cc1c(-c2ccccc2OC(=O)c2ccccc2)[nH]c2ccccc12,-3,/,94,97
O=C(O)c1ccccc1OCc1ccccc1,-10,/,88,91
CC1CN(c2cc(-c3ccccc3)c3ccccc3n2)CC(C)O1 (stereo not given),-21,/,100,93
CN(C)C(=O)c1ccc2c(c1)N(CC(=O)NCCCN1CCCC1)C(=O)CO2,-13,95,/,/
Cc1cc(F)ccc1S(=O)(=O)Nc1ccccc1C(=O)OCC(=O)N1CCCC1=O,-1,/,101,99
CCOc1cc(C2CC(=O)Nc3cc4c(cc32)OCCO4)ccc1O (stereo not given),-6,104,117,85
COc1ccc(C(C)C)cc1S(=O)(=O)NCCc1c(C)[nH]c2ccc(C)cc12,19,108,106,81
CC(NC(=O)c1ccccc1)c1nc(-c2ccccc2)no1 (stereo not given),-20,101,87,83
CCN1C(=O)/C(=C2/C=Cc3ccccc3N2C)OC1=S,-26,99,106,97
O=S(=O)(c1ccc(Cl)cc1)c1nc(-c2ccccc2)oc1N1CCN(c2ccccc2)CC1,-3,103,101,92
CN(C(=O)Cn1ncc2c1-c1ccccc1OC2)c1ccccc1,5,104,117,73
N#CCC(=O)Nc1ccccc1C(F)(F)F,-10,/,94,97
CCOc1ccc(CCNC(=O)Nc2cn(C)c(=O)c3ccccc23)cc1OCC,-27,101,105,79
Cc1sc2ncnc(Nc3ccccc3F)c2c1S(=O)(=O)N1CCCCC1,-28,104,/,/
O=c1nc2n(c3cc(Cl)c(S(=O)(=O)N4CCOCC4)cc13)CCC2,1,/,86,89
CCOC(=O)c1ccccc1NC(=O)N1CCC(CN2CCOCC2)CC1,/,100,88,96
O=C(CSc1nccc(=O)[nH]1)Nc1ccc(Oc2ccccc2)cc1,-17,108,119,88
CCc1ccc(NC(=O)Cn2nnc(C(=O)NCCc3ccccc3)c2N)cc1,-12,106,112,81
Cc1ccc2c(cnn2C(=O)CCC(=O)N2CCCCC2C)c1 (stereo not given),/,104,94,83
O=C(Cc1coc2ccc3ccccc3c12)Oc1ccc(-c2nnco2)cc1,-27,/,96,86
O=C(c1cnn(-c2ccccc2)n1)N1CCCN(S(=O)(=O)c2ccc(F)cc2)CC1,-15,/,97,83
COc1ccc(C2CC(=O)Nc3c2c(-c2ccccc2)nn3-c2ccccc2)c(OC)c1 (stereo not given),-19,104,/,/
O=C(CSc1ncc(C(F)(F)F)cc1Cl)NCCCN1CCCC1=O,-12,/,78,89
SMILES,HCMV NEC inh,GIV-Gai inh,Sa growth inh,Sa growth inh second temp
O=S(=O)(Cc1nc(-c2ccsc2)no1)c1ccc(Cl)cc1,-2,98,85,72
O=C(CN1C=NS(=O)(=O)c2ccccc21)N1CCCCCC1,-17,101,100,98
CCC1CN(C(=O)Nc2cc(C)cc(C)c2)c2ccccc2O1 (stereo not given),-6,100,87,117
COc1ccc(-c2cc(C(=O)N3CCN(Cc4ccccc4)CC3)[nH]n2)cc1,6,103,107,99
CC(=O)N1C(=O)N(C)C2C1N(C(C)=O)C(=O)N2C (stereo not given),-42,107,85,87
Cc1cc(C(=O)CSc2nnc3sc4ccccc4n23)c(C)n1CCc1ccccc1,-30,/,92,94
COc1ccc(Cl)c2sc(NC(=O)c3ccc(S(=O)(=O)N4CCOCC4)cc3)nc12,/,94,74,89
COc1ccc(CNC(=O)c2cc(Nc3ccc(OC)cc3OC)nc3ccccc23)cc1,-20,104,109,78
CC(=O)c1ccc(NC(=O)c2sc(-n3nc(C)c(CCC(C)C)c3C)nc2C)cc1,1,99,80,98
CCN(CCCNC(=O)CN1C(=O)CC(C)(C)S(=O)(=O)c2ccccc21)Cc1ccccc1,-28,96,/,/
N#Cc1ccccc1OCCCCSc1ncccn1,-10,97,105,94
COc1cccc(NC(=O)C(=O)NCC(c2ccc3c(c2)OCO3)N2CCOCC2)c1 (stereo not given),/,102,111,94
Cc1cccc(NC(=O)CCCn2nc(C)c3c(C)n(-c4ccccc4)nc3c2=O)c1C,/,97,84,93
CC(=O)NC1(C)CCC(C(C)(C)C#N)C1 (stereo not given),-26,98,87,88
CCCOC(=O)c1cccc(Nc2nc(CCC)cc(=O)[nH]2)c1,4,98,56,38
CCN(CC)S(=O)(=O)c1cccc(C(=O)Nc2nncs2)c1,-1,/,81,85
COc1ccc2nc(N3CCN(C(=O)c4ccco4)CC3)sc2c1,/,105,113,76
Cc1[nH]c(SCC(=O)NCCN2CCOCC2)nc1Cc1ccccc1,-20,/,62,83
COC(=O)c1ccc(NC(=O)C2CC(=O)N(Cc3ccc4c(c3)OCO4)C(=Nc3ccc(OC)cc3)S2)cc1 (stereo not given),-12,111,/,/
CSc1ccccc1C(=O)NCC(c1ccco1)N(C)C (stereo not given),-10,/,92,95
O=C(NC1CC2CCC(C1)N2C(=O)NC1CCCCC1)NC12CC3CC(CC(C3)C1)C2 (stereo not given),-20,104,97,78
Cc1cccc(C)c1NC(=O)c1cnc(NC(C)C)cc1C(F)(F)F,-9,108,127,97
COc1cccc(NC(=O)Cn2nnc(C(=O)NCc3ccc4c(c3)OCO4)c2N)c1,/,100,89,92
NC(=O)CN1C(=O)C(O)(CC(=O)c2ccccc2)c2ccccc21 (stereo not given),-30,/,101,84
Cc1oc2ccc(O)c(CN3CCCCCC3)c2c1C(=O)Nc1cccc(Cl)c1C,10,105,101,86
SMILES,HCMV NEC inh,GIV-Gai inh,Sa growth inh,Sa growth inh second temp
CCC1Cn2c(C(=O)NCC3CCCO3)cc3c(Cl)ccc(c32)O1 (stereo not given),-9,103,/,/
COC(=O)c1ccc(COC(=O)C2CCN(C(=O)c3ccc(Cl)cc3)CC2)o1,-14,/,91,84
COC(=O)c1cc(S(=O)(=O)C(C)C)c(S(C)(=O)=O)s1,-55,101,89,86
COc1ccc(CNc2ccc(NC(=O)c3ccco3)c(C)c2)cc1,0,106,95,76
CCOC(=O)COc1ccccc1C#N,-19,100,88,87
CCCN1C(=O)c2nc3ccccc3n2CC1(C)C(=O)NC1CCC(C)CC1 (stereo not given),-25,101,/,/
CC(C)CN(CC(C)C)c1nc(-c2ccc(Cl)cc2)nc2ccccc12,-20,107,84,86
COc1ccc(CCNc2nnc(Cc3cccnc3)c3ccccc23)cc1OC,-7,103,97,84

# Record cards, from the list above. Screens in order: HCMV NEC inh, GIV-Gai inh, Sa growth inh, Sa growth inh second temp
# Entry for CC(C)CN(CC(C)C)c1nc(-c2ccc(Cl)cc2)nc2ccccc12 : -20, 107, 84, 86
# Entry for COC(=O)c1ccc(COC(=O)C2CCN(C(=O)c3ccc(Cl)cc3)CC2)o1 : -14, /, 91, 84
# Entry for COc1ccc(CNc2ccc(NC(=O)c3ccco3)c(C)c2)cc1 : 0, 106, 95, 76
# Entry for CCOC(=O)COc1ccccc1C#N : -19, 100, 88, 87
# Entry for COC(=O)c1cc(S(=O)(=O)C(C)C)c(S(C)(=O)=O)s1 : -55, 101, 89, 86

# Three of the entries above in order of the Sa growth inh value, high to low:
SMILES	Sa growth inh
COC(=O)c1ccc(COC(=O)C2CCN(C(=O)c3ccc(Cl)cc3)CC2)o1	91
COC(=O)c1cc(S(=O)(=O)C(C)C)c(S(C)(=O)=O)s1	89
CCOC(=O)COc1ccccc1C#N	88

# Random draw from the library; 0.83% or so of the library scored in one or more.
